Compound activity (PubChem BioAssay)
GIV-Gai inh: blocks GIV peptide binding to rat Galpha-i3; AID 1224905; percent of control (FP), % (test concentration not listed); actives 0.42% (n = 210,000); Galpha-i3/FITC-GIV peptide fluorescence polarization, 90 min; active compounds read low; scaled: aluminum fluoride 0%, vehicle 100%;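 active = replicate mean at 85% of control or lower, very high polarization wells dropped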;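 note: lower values mean more displacement of the GIV peptide from Galpha-i3; wells of about 15 µL received 100 nL stock; the first replicate is given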
Target sequence (P08753 whole entry, looked up): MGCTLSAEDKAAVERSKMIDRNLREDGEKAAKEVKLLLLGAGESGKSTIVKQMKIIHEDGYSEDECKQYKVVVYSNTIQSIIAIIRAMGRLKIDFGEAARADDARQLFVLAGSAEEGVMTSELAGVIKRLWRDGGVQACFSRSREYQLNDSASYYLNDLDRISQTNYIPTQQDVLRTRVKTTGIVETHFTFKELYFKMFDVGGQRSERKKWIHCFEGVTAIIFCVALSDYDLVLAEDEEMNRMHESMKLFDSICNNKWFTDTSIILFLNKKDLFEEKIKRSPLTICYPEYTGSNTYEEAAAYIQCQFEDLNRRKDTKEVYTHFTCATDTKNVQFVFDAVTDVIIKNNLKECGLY
* = called active by the depositor; & = joins results of further samples. A portion of the library (hit frequency here may not be typical).

SMILES	GIV-Gai inh
O=C(COc1ccc(Cl)cc1-n1cnnc1)NCc1ccccc1	105.1
CCC1=NS(=O)(=O)c2cccnc2N1c1ccc(Br)cc1	102.0
CCOc1ccc(NC(=O)N2CC(=O)N(CC(=O)NCc3ccccc3Cl)c3ccccc32)cc1	101.8
Cc1nc(-c2ccc(C(=O)N3CCC(C(=O)N4CCCCC4)CC3)cc2)no1	103.4
COc1ccc(N2C(=O)C(N3C(=O)c4ccccc4C3=O)C2c2cc(OC)c(OC)c(OC)c2)c(OC)c1 (configuration not stated)	108.6
O=C(Nc1nnc(SCC(=O)N2CCCCC2)s1)NC1CCCCC1	102.0
Cc1ccc(COCc2nn(C)c3c2CN(S(=O)(=O)c2ccc(Br)cc2)CC3)cc1	103.5
Cn1c(=O)n(Cc2ccc(Cl)cc2)c(=O)c2cnc(-c3ccncc3)nc21	106.4
Oc1oc(-c2ccc(Br)cc2)nc1C=Nc1ccccc1I	105.4
CCOC(=O)c1ccc(NC(=O)CSc2nc3cc(C(=O)OC)ccc3c(=O)n2Cc2ccc3c(c2)OCO3)cc1	102.7
CN(Cc1ccccc1)C(=O)CSc1nc(NCc2ccccc2)c2ccccc2n1	117.4&103.3
CC(C)OCCCNC(=O)c1ccc2c(c1)N(Cc1ccc(F)cc1)C(=O)c1ccccc1S2	110.8
FC(F)(F)c1ccc(-c2nnc3cccc(Cl)n23)cc1	110.1
C#CCOc1ccc(C2CC(=O)Nc3c2c(C)nn3-c2ccc3nnc(C)n3n2)cc1OC (configuration not stated)	99.6
COc1ccc(-c2cc(C(F)(F)F)n3ncc(C(=O)Nc4cccc(CCC#N)c4)c3n2)cc1OC	102.9
CCOC(=O)c1c(NC(=O)CCCOc2ccc(Cl)cc2Cl)sc(C(=O)Nc2ccccc2C)c1C	116.2
O=C(NC1CSCC1O)c1ccccc1 (configuration not stated)	112.6
Cc1cc(N2CCN(C)CC2)n2nc(CN3CCN(CC(C)C)CC3)nc2n1	99.8
CCOc1ccc(OCC)c(NS(=O)(=O)c2cc(-c3nc(C)cs3)sc2C)c1	159.8
CCn1c(CCc2ccccc2NS(=O)(=O)c2ccc(F)cc2F)nc2ccccc21	102.4
Cc1ccsc1CCNS(=O)(=O)c1ccc(-c2ccno2)s1	95.6
N#C/C(C(=O)Nc1ccccc1)=C(/Nc1ccccc1)SCc1ccccc1F	102.4
CCOc1cc(C2C(C#N)=C(N)Oc3n[nH]c(C(C)C)c32)cc([N+](=O)[O-])c1OC(=O)c1cccs1 (configuration not stated)	107.2
CC1(C)CC(=O)C2=C(C1)N=C1c3ccccc3C(=O)C1C2c1ccc(Cl)cc1Cl (configuration not stated)	109.0
O=C(c1ccc2c(=O)n(Cc3ccc4c(c3)OCO4)c(=S)[nH]c2c1)N1CCN(Cc2ccccc2)CC1	104.1

Remaining list, next part:
SMILES	GIV-Gai inh
COC(=O)C1=NNC2C(=O)N(c3cccc(Br)c3)C(=O)C12 (configuration not stated)	109.9
O=C(NC1CCN(Cc2ccccc2)CC1)c1ccc2c(c1)nc1n2CCCC1	104.8
CC(C)Cn1c(=O)c(-c2ccc(C(=O)N3CCN(c4ccccc4)CC3)cc2)nc2ccccc21	100.6
Cc1cccc(CNC(=O)C2CCCN(S(=O)(=O)Cc3ccc(F)cc3)C2)c1 (configuration not stated)	105.4
O=C(C1CCN(S(=O)(=O)c2cccnc2)CC1)N1CCOc2ccc(Cl)cc21	109.3
CCOCCOC(=O)C1=C(C)NC(=O)CC1c1ccc(Cl)cc1Cl (configuration not stated)	124.0
O=C(CSc1nnc(-c2ccccc2)c(-c2ccccc2)n1)Nc1ccccc1	113.2
CCOc1ccc(NC(=O)CSc2nc3ccccc3n2S(=O)(=O)c2ccc(Br)cc2)cc1	110.1
CCCCC(=O)N1CCC2(C1)C(=O)N(C)c1ccccc12 (configuration not stated)	110.8
NS(=O)(=O)c1cc(Cl)c(NC(=O)c2c(O)c3ccccc3[nH]c2=O)c(Cl)c1	107.0
CCc1onc(C)c1C1CCCN1Cc1ccc(F)cc1 (configuration not stated)	105.2
Cc1c(C(c2ccccc2O)c2c(C)n(C)n(-c3ccccc3)c2=O)c(=O)n(-c2ccccc2)n1C	110.9
CC(C)Cn1c(=O)c(-c2ccc(C(=O)N3CCOCC3)cc2)nc2ccccc21	103.2
CCC(=O)Nc1cccc(-c2noc(C3CCCN(C(=O)c4cccc(Cl)c4)C3)n2)c1 (configuration not stated)	111.0
O=c1n(Cc2cc(F)cc(F)c2)nc2c(S(=O)(=O)N3CCCCC3)cccn12	105.7
CCOc1ccc(N2C(=O)/C(=C\c3ccc(N(C)C)cc3)S(=O)(=O)C2c2cccc([N+](=O)[O-])c2)cc1 (configuration not stated)	167.5
O=C1c2ccccc2NC(c2ccc3c(c2)OCO3)N1c1ccc(Br)cc1 (configuration not stated)	109.1
CCOC(=O)CC(=O)CSc1nc2cc(C(=O)NCc3ccco3)ccc2c(=O)n1C1CCCCC1	109.5
CCOC(=O)c1sc(NC(=O)C(C)Sc2nnc(CNC(=O)c3ccccc3F)n2C)c(C(=O)OCC)c1C (configuration not stated)	108.3
CNC(=O)N1CCCC1c1cc(C(C)C)no1 (configuration not stated)	102.5
CSc1ccccc1NC(=O)c1sc2ccccc2c1Cl	106.1
CC1CCc2oc3ccc(NS(=O)(=O)c4ccc(C(C)(C)C)cc4)cc3c2C1 (configuration not stated)	117.4
O=C(N1CCCCC1)N1c2ccccc2CC(N2CCCCC2)c2ccccc21 (configuration not stated)	116.6
CCCc1[nH]n(-c2ccc(F)cc2)c(=O)c1C=Nc1ccc(C)c(C)c1	101.9
COC(=O)c1ccccc1NC(=O)NCc1nnc(C(=O)Nc2ccc(OC)cc2)s1	112.2

(further entries)
SMILES	GIV-Gai inh
COCCNC(=O)c1nc(-c2ccc(S(=O)(=O)N(C)C)cc2)no1	104.2
COC(=O)c1ccccc1NC(=O)c1ccc(N2CC3CC(C2)c2cccc(=O)n2C3)c(NC(=O)c2ccc(OC)cc2)c1 (configuration not stated)	100.3
O=C(Nc1ccc(F)cc1)c1nnc(C2CCCN(C(=O)Nc3ccc(F)cc3)C2)s1 (configuration not stated)	101.7
CCOc1ccc2c(c1)C(=C1SC(C(=O)OC)=C(C(=O)OC)S1)C(=S)C(C)(C)N2C(=O)c1cccc(Br)c1	101.5
COc1cc(-c2c(C#N)c(N)nc3sc(C(=O)c4ccc([N+](=O)[O-])cc4)c(N)c23)cc(OC)c1OC	107.8
Cc1ccc(CN2CCC(CNC(=O)c3ccc4c(c3)nc3n4CCOC3)CC2)cc1	95.6
O=C1C2C3c4ccccc4C(CO)(c4ccccc43)C2C(=O)N1c1cccc2ccccc12 (configuration not stated)	114.3
Cc1ccc(C(=O)[C@@H]2[C@@H](c3ccsc3)C(C#N)(C#N)[C@H]3C=Cc4ccccc4N23)cc1	116.2
CC(C)Oc1ccc(/C=C(\NC(=O)c2ccccc2)C(=O)NCc2ccco2)cc1	108.4
O=C1C(=O)N(c2ccccn2)C(c2cccnc2)/C1=C(\O)c1ccc(Br)cc1 (configuration not stated)	105.5
O=c1ccc(-c2ccc(F)cc2)nn1CCc1nc(-c2ccc(F)c(Br)c2)no1	102.9
Cc1cccc2sc(NC(=O)c3sc4ncnc(N5CCOCC5)c4c3C)nc12	96.3
CCN1CCN(C(=O)c2ccc(-c3nc4ccccc4n(CC(C)C)c3=O)cc2)CC1	98.5
CCOC(=O)C1=C(C)OC(N)=C(C#N)C1c1c(C)cc(C)c([N+](=O)[O-])c1C (configuration not stated)	105.1
N#Cc1c(C(F)(F)F)cc(-c2ccccc2)nc1SCC(=O)Nc1ccc(S(N)(=O)=O)cc1	110.8
O=C(Cn1nc2c3sc(N4CCCCC4)nc3ncn2c1=O)Nc1ccc(Br)cc1	103.9
Cc1cc(N2CCCC2)nc(N2CCN(S(=O)(=O)c3ccc4c(c3)Cc3ccccc3-4)CC2)n1	98.9
COc1ccccc1-c1noc2ncnc(N3CCCC3)c12	102.8
CCN1C(=O)N(CC)C2(O)c3ccccc3C(=O)C12O (configuration not stated)	107.4
CCc1ccccc1NC(=O)c1cc(S(=O)(=O)NC2CCCCC2)ccc1F	108.9
CCN1C(=O)c2ccccc2Sc2cc(NC(=O)C3CC(=O)N(c4ccc(C)c(C)c4)C3)ccc21 (configuration not stated)	103.1
COc1ccccc1NC(=O)N1CCN(C)c2ccccc21	107.9
Cc1nc(S(=O)(=O)NCc2ccccc2Cl)c(C#N)c(C)c1Cl	104.3
CC1(C)C(=O)NCCN1C(=O)NC1CCCCC1	102.3
CCn1ccnc(NC2CC2)c1=O	105.8

A second format for part of the listing above.
> COC(=O)c1ccccc1NC(=O)c1ccc(N2CC3CC(C2)c2cccc(=O)n2C3)c(NC(=O)c2ccc(OC)cc2)c1 (configuration not stated)
  GIV-Gai inh: 100.3
> O=C1C2C3c4ccccc4C(CO)(c4ccccc43)C2C(=O)N1c1cccc2ccccc12 (configuration not stated)
  GIV-Gai inh: 114.3

Some values from the entries so far:
GIV-Gai inh result of `CCn1ccnc(NC2CC2)c1=O` → 105.8
GIV-Gai inh result of `O=C1C(=O)N(c2ccccn2)C(c2cccnc2)/C1=C(\O)c1ccc(Br)cc1` (configuration not stated) → 105.5
GIV-Gai inh result of `Cc1ccc(C(=O)[C@@H]2[C@@H](c3ccsc3)C(C#N)(C#N)[C@H]3C=Cc4ccccc4N23)cc1` → 116.2
GIV-Gai inh result of `CC1(C)C(=O)NCCN1C(=O)NC1CCCCC1` → 102.3
GIV-Gai inh result of `Cc1cccc2sc(NC(=O)c3sc4ncnc(N5CCOCC5)c4c3C)nc12` → 96.3
GIV-Gai inh result of `Cc1cc(N2CCCC2)nc(N2CCN(S(=O)(=O)c3ccc4c(c3)Cc3ccccc3-4)CC2)n1` → 98.9

Further results.
SMILES	GIV-Gai inh
O=C(Nc1ccc2c(c1)OCO2)c1ccc(-c2cc(N3CCCC3)ncn2)cc1	190.1
COc1cc(/C=c2\sc3nc4c(C)c(C)ccc4n3c2=O)ccc1OCc1ccc(F)cc1	110.0
COC(=O)c1ccc2c(=O)n(CCN3CCOCC3)c(SCC(=O)N3CCN(c4ccccc4OC)CC3)nc2c1	123.9
CCCc1cc(C(=O)N2CCCC2c2c(C)noc2C)no1 (configuration not stated)	102.7
O=c1c2cccnc2n(-c2ccccc2)c(=O)n1Cc1ccccc1F	100.5
CCN1CCCC1CNC(=O)c1ccc2c(=O)n(Cc3cccc(Br)c3)c(=S)[nH]c2c1 (configuration not stated)	109.9
COc1cccc(C2=N/C(=C\c3ccccc3OC)C(=O)N2c2ccc(C)cc2)c1	94.0
CC(=O)Nc1cc2c(cc1[N+](=O)[O-])OCCOCCOCCO2	107.3
COc1ccc(-c2nc(Cn3c(=O)c4cccnc4n(-c4ccccc4)c3=O)c(C)o2)cc1	103.7
CCOC(=O)C1=C(O)/C(=C/c2ccc(F)cc2)SC1=Nc1cccc(Cl)c1	117.1
O=C1NC23NC(=O)NC2(N1)c1ccccc1-c1ccccc13 (configuration not stated)	95.1
O=C(O)CCS(=O)(=O)c1ncn[nH]1	98.4
Cc1nc2cc(-c3noc(-c4cncc(Br)c4)n3)ccc2o1	99.0
O=C1C(c2ccccc2)C(c2cccc([N+](=O)[O-])c2)NC(c2cccc([N+](=O)[O-])c2)C1c1ccccc1 (configuration not stated)	100.3
Cc1ccc(S(=O)(=O)N2CCC(c3noc(-c4ccc(F)cc4)n3)CC2)cc1	102.0
COc1cc(OC)c(OC)cc1/C=C1\N=C(c2cc(OC)c(OC)c(OC)c2)OC1=O	136.5
CN1CCCc2cc(C(=O)NC3CCCCCC3)sc21	108.2
CNC(=O)c1c(NC(=O)c2ccc(S(=O)(=O)N3CCc4ccccc43)cc2)sc2c1CCC2	107.6
COc1ccc(C2N(c3ccccc3)CCN2c2ccccc2)cc1	113.2
CC1CCN(C(=O)c2cc3c(s2)CCC(C(=O)N2CCCC2)C3)CC1 (configuration not stated)	97.8
Cc1ccc2c(c1)NC(=O)c1cc(S(=O)(=O)N3CCc4ccccc4C3)ccc1O2	104.2
CC(C)(C)c1cc(CN(Cc2cc(C(C)(C)C)c(O)c(C(C)(C)C)c2)C2CCCCC2)cc(C(C)(C)C)c1O	101.3
O=C1CC(c2ccccc2F)c2ccc3ccccc3c2N1 (configuration not stated)	126.1
CCOc1ccc(NC(=O)CSC2=C(C#N)C(c3ccncc3)C(C(=O)Nc3ccccc3)=C(C)N2)cc1 (configuration not stated)	102.1
CCC1(C)CC(CCNCc2ccc(OC)c(OC)c2)(c2ccc(OC)cc2)CCO1 (configuration not stated)	118.9

Ordered by value in GIV-Gai inh (descending): 7 of the compounds above.
mol | GIV-Gai inh
CCCCC(=O)N1CCC2(C1)C(=O)N(C)c1ccccc12 (configuration not stated) | 110.8
CCN1C(=O)N(CC)C2(O)c3ccccc3C(=O)C12O (configuration not stated) | 107.4
O=c1n(Cc2cc(F)cc(F)c2)nc2c(S(=O)(=O)N3CCCCC3)cccn12 | 105.7
O=C(COc1ccc(Cl)cc1-n1cnnc1)NCc1ccccc1 | 105.1
O=C(NC1CCN(Cc2ccccc2)CC1)c1ccc2c(c1)nc1n2CCCC1 | 104.8
O=c1ccc(-c2ccc(F)cc2)nn1CCc1nc(-c2ccc(F)c(Br)c2)no1 | 102.9
Cc1ccc(S(=O)(=O)N2CCC(c3noc(-c4ccc(F)cc4)n3)CC2)cc1 | 102.0

Continuation.
SMILES	GIV-Gai inh
CCc1cc2c(s1)SC(c1ccc([N+](=O)[O-])cc1)NC2=O (configuration not stated)	115.3
CCOCCCNC(=O)c1cccc(Oc2cc(-c3ccc(OC)cc3)ncn2)c1	102.3
O=C(NCCOc1ccc(-c2ccccc2)nn1)C1c2ccccc2Oc2ccccc21	100.4
Cc1ccc(C)c(-n2c(CNC(=O)c3ccco3)nnc2SCC(=O)Nc2nc3ccccc3s2)c1	106.8
CC(C)N(C(=O)CO[C@@H]1[C@H]2OC3(CCCCC3)O[C@H]2O[C@@H]1C1COC2(CCCCC2)O1)c1ccccc1 (some centres not stated)	116.5
CC(=O)N1CCC(C(=O)NCc2ccccc2)(N(C(=O)c2ccc(C)cc2)c2cccc(F)c2)CC1	103.9
NC(=O)c1cc2cc(Br)ccc2oc1=Nc1ccc(C(=O)c2ccccc2)cc1	103.9
COc1cc(C2N(Cc3ccccc3)CCN2Cc2ccccc2)ccc1OCc1ccccc1	108.0
